Screens deposited in PubChem BioAssay by Fisher Drug Discovery Resource Center.
NPYLR7 ag – mosquito NPYLR7 agonism; actives 0.15% (n = 270,000); HEK293T NPYLR7/Galpha15, GCaMP6s calcium fluorescence; activation, % at 10 µM; in the data active means activation above about 40%;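 further: 0% = vehicle and 100% = reference agonist at the receptor; some compounds past the cut are filed as inactive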
NPYLR7 ag max-min – second read-out of NPYLR7 ag, no call of its own (marks repeat the call); activation, %; measured here: Max-Min RFU normalised activation; some inactives read as strong as hits;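 span of the calcium signal over five minutes; 0% = vehicle and 100% = native peptide agonist; compound fluorescence can raise it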
Numbers without * were called inactive; & = joins results of further samples. This is a subset. The share of hits here may be higher or lower than overall.

entry | structure | NPYLR7 ag | NPYLR7 ag max-min
1 | NC(=O)CSc1nc2c(c(=O)n1-c1ccccc1)SCC2 | 1 | -3
2 | COCCCNc1ncnc2c1c(-c1ccccc1)cn2-c1ccc(OC)cc1 | 1 | 1
3 | COc1cc(OC)c(C2c3cccn3CCCN2Cc2cccc(Cl)c2)cc1OC (stereo not drawn) | 3 | 14
4 | N#CC1C(=O)NC(c2ccco2)N(c2ccc(F)cc2)C1=S (stereo not drawn) | -5 | 0
5 | CCCc1nc(N[C@H]2CCCCNC2=O)c2cnn(C)c2n1 | 17 | 5
6 | C=CCN(Cc1csc(COc2ccccc2C(C)C)n1)C(=O)c1cccc(C)c1 | -4 | 13
7 | COc1ccccc1-n1nc(C)nc1[C@H]1Cc2ccccc2CN1 | -1 | -1
8 | Cc1ccc(-n2c(SCc3ccc(F)cc3)nnc2C(C)NC(=O)C(Cl)Cl)cc1 (stereo not drawn) | -6 | -5
9 | Cc1ccc(-n2c(CNS(=O)(=O)c3ccc(C)cc3)nnc2SCc2ccccc2)cc1 | -2 | 6
10 | Cc1cc(C)cc(N2C(=O)CSC2c2cccc(NC(=O)C(Cl)c3ccccc3)c2)c1 (stereo not drawn) | 10 | 12
11 | O=C(O)c1cc(Oc2cccc(Br)c2)ccn1 | 6 | 2
12 | Cc1ccc2oc(-c3ccc(NC(=O)c4ccccc4Cl)cc3)nc2c1 | -14 | -17
13 | COc1ccc(-c2nnc3ccc(SCC(=O)Nc4ccc(OC)cc4OC)nn23)cc1 | -1 | 19
14 | CCOC(=O)C(C)Sc1nnc(NC(=O)c2cccc(Br)c2)s1 (stereo not drawn) | 21 | 25
15 | Cc1nn2c(-c3cccc(NC(=O)CN4CCOCC4)c3)nnc2c2ccccc12 | 6 | 4
16 | CCOc1cccc2cc(C(=O)Nc3nnc(-c4cc(C)nn4C)o3)oc12 | -3 | -4
17 | CCn1c(=O)c(C(=O)Nc2ccccc2)nn(-c2ccc(Cl)cc2)c1=O | 0 | 4
18 | NC(=O)c1cn(CC(=O)N2CCOC(C(F)(F)F)C2)c2ccccc12 (stereo not drawn) | 1 | -13
19 | CCOC(=O)c1c(NC=C(C#N)C#N)sc(C)c1CC | 0 | 7
20 | CC(=O)NCCc1ccc(C(=O)c2oc3ccc(F)cc3c2C)s1 | 13 | 11
21 | Cc1cc(C(=O)N(CCN(C)C)c2nc3c(Cl)cccc3s2)nn1C | 4 | 1
22 | NC(=O)C1CC(O)CN1c1nc(C(F)(F)F)nc2ccccc12 (stereo not drawn) | -1 | -3
23 | CCOc1ccc(N(CC(=O)NC(C)c2ccccc2)S(C)(=O)=O)cc1 (stereo not drawn) | -9 | -8
24 | Cc1cc2oc(=O)cc(COC(=O)C3CCC3)c2cc1C(C)C | 2 | 1
25 | COc1ccc(/C=C/c2ccccc2)nn1 | -4 | -5

Some of these compounds in order of molecular weight, highest first.
entry | structure | NPYLR7 ag | NPYLR7 ag max-min
14 | CCOC(=O)C(C)Sc1nnc(NC(=O)c2cccc(Br)c2)s1 (stereo not drawn) | 21 | 25
23 | CCOc1ccc(N(CC(=O)NC(C)c2ccccc2)S(C)(=O)=O)cc1 (stereo not drawn) | -9 | -8
17 | CCn1c(=O)c(C(=O)Nc2ccccc2)nn(-c2ccc(Cl)cc2)c1=O | 0 | 4
25 | COc1ccc(/C=C/c2ccccc2)nn1 | -4 | -5

(further entries)
entry | structure | NPYLR7 ag | NPYLR7 ag max-min
26 | COCc1[nH]n(-c2ccc(Cl)c(Cl)c2)c(=O)c1C1=C(N2CCN(C)CC2)C(=O)N(c2ccc(OC)cc2)C1=O | 4 | 13
27 | NC(=O)COC(=O)c1ccccc1Cl | 0 | 1
28 | Cc1cc(N2CCOCC(CN(C)C)C2)nc(-c2ccccc2O)n1 (stereo not drawn) | 3 | 10
29 | COc1cccc(OCc2cc(C(=O)N3CCN(C(=O)c4ccco4)CC3)no2)c1 | -1&-9 | -1&-8
30 | CCO[C@H]1COC[C@@H]1NC(=O)Cc1nc2ccc(Cl)cc2[nH]1 | 12 | 9
31 | Cc1ccc(-c2nc(N3CCOCC3)sc2C(=O)NCC2CCCO2)cc1 (stereo not drawn) | -5 | 2
32 | O=C(CSc1ccc2nnc(CCNC(=O)c3ccccc3)n2n1)Nc1nccs1 | -2 | -7
33 | FC(F)(F)COc1cc(CNCc2ccn[nH]2)ccn1 | 1 | 13
34 | CN1C(/C=N\Nc2nc(-c3ccccc3)cc(-c3ccccc3)n2)=NC2C=CC=CC21 (stereo not drawn) | -3 | -11
35 | O=C(c1ccccc1C(F)(F)F)N1CCc2ccccc2C1c1ccccc1Cl (stereo not drawn) | -4 | 2
36 | Cc1ccc(CSc2nc(CC(=O)NCCn3nc(-c4ccco4)ccc3=O)cs2)cc1 | 0 | -2
37 | CC(=O)c1c(C)[nH]c(C(=O)CSc2nnnn2-c2ccccc2C)c1C | 1 | -3
38 | CCOC(=O)c1nc2cc(Cl)c(Cl)cc2nc1N1CCN(C(=O)CCC(=O)OC)CC1 | 5 | 3
39 | O=C(Nc1ccc(C(=O)N2CCCC2)cc1)C1COc2ccccc2O1 (stereo not drawn) | 0 | 4
40 | C=CCCC(O)CN(Cc1nc2scc(-c3ccccc3)c2c(=O)[nH]1)C1CCCCC1 (stereo not drawn) | 3 | -1
41 | COc1nnnn1-c1ccccc1 | 11 | 7
42 | CCN(CC)C(=O)c1sc(NC(=O)c2ccnn2C)c(C(=O)OC(C)C)c1C | -7 | -10
43 | O=C(O)COc1ccc2c(=O)c(-c3ccc(Cl)cc3)coc2c1 | 3 | 1
44 | CCC(C)C(=O)N1CCC(c2nc(-c3ccccc3)no2)CC1 (stereo not drawn) | 5 | 0
45 | N#Cc1cnc(Sc2nnc(-c3ccccc3)n2N)nc1N | 1 | 1
46 | O=C(NC1CCCCC1)c1ccc(Cl)c(S(=O)(=O)N2CCCCC2)c1 | -3 | -10
47 | CNC(=O)[C@H]1C[C@]2(CCCCN(CCO)C2=O)N(C(=O)Cc2ccccc2)[C@H]1c1ccco1 | 1 | 6
48 | CCCN(CC1CC(c2ccc(Cl)c(Cl)c2)=NO1)C(=O)c1cccs1 (stereo not drawn) | 25 | 22
49 | Cc1nn(C)c(C)c1CCC(=O)N1CCN(CCn2cncn2)CC1 | 1 | -5
50 | COC(=O)C1=C(C)N(C(C)C)C(=O)C1(NC(C)=O)C(F)(F)F (stereo not drawn) | 2 | 1
51 | CC(C)(C)c1cc(NC(=O)CN(Cc2ccccc2)C(=O)COc2ccc(Cl)cc2)n(-c2ccccc2)n1 | 18 | 16
52 | Cc1cc(C(C)NCc2cnc3n[nH]c(C)c3c2)c(C)s1 (stereo not drawn) | 5 | 2
53 | COc1cc(NCc2cc(-c3ccccn3)no2)ncn1 | 6 | 3
54 | COc1ccc(/C=C\C(=O)Nc2c3c(nn2-c2ccccc2C)CS(=O)(=O)C3)cc1OC | 0 | -1
55 | CCOC(=O)[C@H]1C[C@]2(CCCCN(C)C2=O)N(C(=O)COc2ccccc2)[C@H]1c1ccco1 | 6 | 18
56 | COc1ccc(OC)c(CC(=O)N2CCC(c3ccccc3C(=O)O)C2)c1 (stereo not drawn) | 17 | 4
57 | CC1CCc2cc(F)ccc2N1C(=O)Cc1cc(-c2ccco2)on1 (stereo not drawn) | 1 | 5
58 | Cc1ccc(CN(C)S(=O)(=O)c2ccc3c(c2)CCC(=O)N3)c(C)c1 | 2 | 1
59 | Cc1ccc(Cn2c(C)c(C(=O)NCc3cccc4ccccc34)sc2=O)cc1 | 13 | 6
60 | COCCCn1c(-c2ccc(Cl)cc2)nn(CN2CCc3sccc3C2)c1=S | 4 | 5
61 | C=CCCC(=O)NCc1ccc(-c2ncc(-c3ccc(F)cc3)[nH]2)cc1 | -1 | 8
62 | COc1cccc(N2CCC(CNC(=O)N3CCCCCC3)C2)c1 (stereo not drawn) | -1 | -2
63 | CC(C)(C)C(NC(=O)Nc1ccc(-n2cnnn2)cc1)c1cccs1 (stereo not drawn) | 0 | 1
64 | Nc1ccc(N2CCCCC2)c(S(=O)(=O)Nc2ccccc2Cl)c1 | 4 | 2
65 | Cc1noc(-c2cccc(C(F)(F)F)c2)c1C(=O)NCc1ccc(F)cc1F | 5 | 1
66 | COc1cc(OC)cc(C2c3cccn3CCCN2CCC(C)C)c1 (stereo not drawn) | 28 | 26
67 | COCCNC(=O)c1cccc(OC2CCN(Cc3cc4ccccc4o3)CC2)c1 | 5 | 4
68 | Fc1ccc(-c2[nH]ncc2CNCCCc2nc3ccccc3[nH]2)cc1 | 17 | 5
69 | COc1cc(OC)cc(-n2c(CCC(=O)NC3CCCc4ccccc43)cc3c2-c2ccccc2CC3)c1 (stereo not drawn) | 1 | -2
70 | CC1C(=O)N(c2ccc(F)c(Cl)c2)CCN1C(=O)c1ccc2c(c1)OCO2 (stereo not drawn) | 1 | 8
71 | CCOc1ccccc1N1CCN(C(=O)c2cc(-c3cccn3C)nn2-c2ccccc2)CC1 | 15 | 10
72 | Cc1ccc(-c2nc3cccc(C)n3c2NC2CCCCC2)cc1 | -4 | 2
73 | O=C(CN1CCCC1)OCCCOC(=O)CN1CCCC1 | -1 | -3
74 | COCCCN(C(=O)Nc1ccc2occc2c1)C1CCN(C)CC1 | 3 | 3
75 | O=C(NCCn1ncc2c(N3CCCCCC3)ncnc21)C1(c2cccs2)CCCC1 | -3 | -4

Sorted by heavy-atom count (highest first): 21 of the compounds above
entry | structure | NPYLR7 ag | NPYLR7 ag max-min
26 | COCc1[nH]n(-c2ccc(Cl)c(Cl)c2)c(=O)c1C1=C(N2CCN(C)CC2)C(=O)N(c2ccc(OC)cc2)C1=O | 4 | 13
51 | CC(C)(C)c1cc(NC(=O)CN(Cc2ccccc2)C(=O)COc2ccc(Cl)cc2)n(-c2ccccc2)n1 | 18 | 16
71 | CCOc1ccccc1N1CCN(C(=O)c2cc(-c3cccn3C)nn2-c2ccccc2)CC1 | 15 | 10
47 | CNC(=O)[C@H]1C[C@]2(CCCCN(CCO)C2=O)N(C(=O)Cc2ccccc2)[C@H]1c1ccco1 | 1 | 6
13 | COc1ccc(-c2nnc3ccc(SCC(=O)Nc4ccc(OC)cc4OC)nn23)cc1 | -1 | 19
34 | CN1C(/C=N\Nc2nc(-c3ccccc3)cc(-c3ccccc3)n2)=NC2C=CC=CC21 (stereo not drawn) | -3 | -11
67 | COCCNC(=O)c1cccc(OC2CCN(Cc3cc4ccccc4o3)CC2)c1 | 5 | 4
2 | COCCCNc1ncnc2c1c(-c1ccccc1)cn2-c1ccc(OC)cc1 | 1 | 1
60 | COCCCn1c(-c2ccc(Cl)cc2)nn(CN2CCc3sccc3C2)c1=S | 4 | 5
31 | Cc1ccc(-c2nc(N3CCOCC3)sc2C(=O)NCC2CCCO2)cc1 (stereo not drawn) | -5 | 2
17 | CCn1c(=O)c(C(=O)Nc2ccccc2)nn(-c2ccc(Cl)cc2)c1=O | 0 | 4
18 | NC(=O)c1cn(CC(=O)N2CCOC(C(F)(F)F)C2)c2ccccc12 (stereo not drawn) | 1 | -13
72 | Cc1ccc(-c2nc3cccc(C)n3c2NC2CCCCC2)cc1 | -4 | 2
14 | CCOC(=O)C(C)Sc1nnc(NC(=O)c2cccc(Br)c2)s1 (stereo not drawn) | 21 | 25
50 | COC(=O)C1=C(C)N(C(C)C)C(=O)C1(NC(C)=O)C(F)(F)F (stereo not drawn) | 2 | 1
1 | NC(=O)CSc1nc2c(c(=O)n1-c1ccccc1)SCC2 | 1 | -3
19 | CCOC(=O)c1c(NC=C(C#N)C#N)sc(C)c1CC | 0 | 7
11 | O=C(O)c1cc(Oc2cccc(Br)c2)ccn1 | 6 | 2
25 | COc1ccc(/C=C/c2ccccc2)nn1 | -4 | -5
27 | NC(=O)COC(=O)c1ccccc1Cl | 0 | 1
41 | COc1nnnn1-c1ccccc1 | 11 | 7

Next entries.
entry | structure | NPYLR7 ag | NPYLR7 ag max-min
76 | Cc1nn(CC(=O)N2CCCC3(CNC(=O)O3)C2)c(=O)c2ccccc12 (stereo not drawn) | 8 | 7
77 | CC(C)c1cccc(NC(=O)c2cccc(CS(C)=O)c2)c1 (stereo not drawn) | 6 | 2
78 | Cc1nnc2ccc(OCCNS(=O)(=O)c3ccc(Oc4ccccc4)cc3)nn12 | 1 | 3
79 | CN(C)C(=O)CSc1nnc2c(=O)n(Cc3ccc(F)cc3)ccn12 | 0 | -4
80 | Cc1nc(-c2cccc(C(=O)NCCc3sc(C)nc3C)c2)n[nH]1 | 1 | 3
81 | COC(=O)CCCCCCCCC(=O)N1CCC[C@H]1C(=O)N1CCC(C(=O)N2CCOCC2)CC1 | 33 | 33
82 | Cc1c(NC(=S)NCCO)c(=O)n(-c2ccccc2)n1C | -11 | -17
83 | COc1ccc(O)c(C2CC(=O)Nc3c2cnn3Cc2ccccc2OC)c1 (stereo not drawn) | 3 | 1
84 | Cc1oc(-c2ccc3ccccc3c2)nc1Cn1cccn1 | 15 | 4
85 | Cc1ccccc1CN1CCCC(c2nn(C)c(=O)n2-c2ccccc2)C1 (stereo not drawn) | 17 | 4
86 | C=C(C)c1ccccc1NC1=NS(=O)(=O)c2ccccc21 | -5 | -5
87 | O=C(CC1CCN(Cc2ccccc2)CC1)Nc1cnc2n1CCCC2 | 12 | 8
88 | COc1ccc(S(=O)(=O)Nc2ccc(Nc3ccc(-n4ccc(C)n4)nn3)cc2)cc1 | -7 | -13
89 | COc1cc(C(=O)N2Cc3cc4c(cc3C3(CCCC3)C2)OCCO4)cc(OC)c1OC | 6 | 5
90 | Cc1nn(CC(=O)NC2C3CC4CC(C3)CC2C4)c(=O)c(C#N)c1C (stereo not drawn) | -2 | -4
91 | COc1ccc(C(=O)N2CCN(c3nc(-c4cccc(F)c4)nc(C)c3C)CC2)c(OC)c1 | 2 | 12
92 | N#Cc1ccc(C(=O)N2CCC(n3c(=O)oc4ccc(F)cc43)CC2)cc1 | 5 | 0
